YjeE inh = YjeE (TsaE) inhibition, E. coli; purified YjeE, fluorescence polarisation of a bound ADP probe; Potency, µM; 71,000 tested, 0.05% active; AID 605; active = well fitted falling curve; inconclusive = weaker or top-dose-only fall, or a rising curve; inactive = flat or poorly fitted curve;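 note: top concentration of the series not given in the record; excess ADP was the control for the full effect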
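Purified YjeE (10 uM) with BODIPY Texas Red-labeled ADP probe (2 uM); compounds pin-transferred, 15 min at room temperature. Binding inhibition read as decreased fluorescence polarization; ADP titration as control.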
PK Bst = pyruvate kinase (B. stearothermophilus) modulation; partly purified Bacillus stearothermophilus pyruvate kinase, luminescence ATP production; ribose 5-phosphate activator present at AC10; Potency, µM; 51,000 tested, 1.2% active; in the data active means potency below about 11 µM; inconclusive means mostly about 12 µM to 25 µM; inactive means weaker than that;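 the screen sought inhibitors and activators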;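 note: potency is the fitted concentration of half-maximal effect; scaled between full activation by ribose 5 phosphate and full inhibition by luteolin; about four in five hits inhibit and the cells do not say which; series up to 57 µM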
Numbers without * were called inactive; i = inactive; ? = inconclusive; · = not tested or not shown. Only part of the results is shown, so the mix of outcomes need not match the whole.

SMILES | YjeE inh | PK Bst
N#C/C(C(N)=O)=c1/ccc2c(c1)N1C3=C(CCCC3)CC3CCCCC31N=2 (stereo not drawn) | 39.8µM* | ·
CCN(CC)CCN(Cc1cc2cc(C)ccc2[nH]c1=O)C(=O)Nc1ccccc1OC | i | >57
COC(=O)C1CCN(C(=O)COC(=O)c2n[nH]c3ccccc23)CC1 | i | >57
O=C(O)c1cc2ccccc2n1-c1ccccc1 | i | >57
FC(F)(F)c1cc(-c2ccccc2)nc(-n2cncn2)n1 | i | >57
Cc1ccccc1N(CC(=O)NCc1ccncc1)S(C)(=O)=O | i | >57
Nc1nnnn1NCc1cccc(OCc2ccccc2)c1 | i | >57
O=C(COC(=O)CCC(=O)c1ccc2c(c1)OCCO2)NCc1ccc2c(c1)OCO2 | i | ·
O=C(CN(C(=O)c1cc2c(s1)CCC2)C1CCCC1)NCc1cccs1 | i | >57
Cc1ccc2c(NC(=O)C3CC3)c(C)ccc2n1 | i | >57
Cc1cc(NS(=O)(=O)c2ccc(OCCNS(C)(=O)=O)cc2)no1 | i | >57
CC(C)Cn1c(N)c(C(=O)NCc2cccs2)c2nc3ccccc3nc21 | i | >57
CC(C)(C)c1cc(NC(=O)COC(=O)c2ccc3c(=O)n4c(nc3c2)CCC4)n(-c2ccccc2)n1 | i | >57
O=C(NC1CCCCCC1)c1cc(S(=O)(=O)N2CCOCC2)ccc1N1CCCCC1 | i | >57
Cc1ccc(NC(=O)NCCc2ccc(S(N)(=O)=O)cc2)cc1 | i | >57
O=C(O)CCC(=O)CCC(=O)c1ccc(Cl)cc1 | i | ·
COc1cccc(-n2c(C)nnc2SCC(=O)Nc2ccccc2N2CCOCC2)c1 | i | >57
O=C(O)CCNS(=O)(=O)c1ccc2c(c1)Cc1ccccc1-2 | i | >57
COc1cccc(NC(=O)C2CCCN(S(=O)(=O)c3cccc4cccnc34)C2)c1 (stereo not drawn) | i | ·
CCCCNC(=O)CCCn1c(=O)[nH]c2ccc(Br)cc2c1=O | i | >57
Cn1c(=O)[nH]c(=O)c2c1nc(Br)n2CCSc1ncccn1 | · | >25.6
COc1ccc(N(C(=O)Nc2ccc(Cl)cc2)C2=NCCC2)cc1 | i | >11.4
S=c1nc(-c2ccccc2)[nH]n1-c1ccccc1 | · | >25.6
O=C(COC(=O)C1c2ccccc2Oc2ccccc21)NC1CCS(=O)(=O)C1 (stereo not drawn) | i | >57
Cc1cc2cc(CNC(=O)C3CC3)ccc2n1C | i | ·
Cc1ccc(S(=O)(=O)Nn2c(C)nnc2-n2nc(C)cc2C)cc1 | i | >57
Fc1ccc(Cn2nnnc2CN2CCN(C3CCCC3)CC2)cc1 | i | >57
CCCc1cc(C(=O)Nc2sc(C)c(CC)c2C#N)no1 | i | ·
CCOC(=O)C(NC(=O)c1ccccc1)=C1CCCCC1 | i | ·
CCNCc1cc2cc(C)ccc2[nH]c1=O | · | i
COc1ccc(N2CCN(S(=O)(=O)c3cccs3)CC2)cc1 | i | >57
Cc1ccc(NC(=O)c2c(O)c3ccccc3n(C)c2=O)nc1 | i | >57
COc1ccc(CNC(=O)c2ccc(=O)oc2)cc1OC | i | >57
O=C1CC(c2ccc(F)c(Br)c2)C2=C(CCCC2=O)N1 (stereo not drawn) | i | >57
CCOC(=O)c1sc(Nc2nc3c(OC)cccc3s2)nc1C | i | ·
Cc1ccc(S(=O)(=O)NCCCCCC(=O)NC(C)(C)CO)cc1 | i | >57
COc1cc2c(cc1OC)[C@H](c1ccccc1)CN(C)CC2 | i | ·
CCCn1c(SCC(=O)Nc2nc3c(s2)CCCC3)nc2c1c(=O)n(C)c(=O)n2C | i | >57
CCOC(=O)c1ccccc1Nc1cc(C)nc2nc(C)nn12 | i | ·
Cc1nn(-c2ccc(F)cc2)c2sc(C(=O)N3CCCCCC3)cc12 | i | >57

Records listed above marked active in YjeE inh.
SMILES | YjeE inh | PK Bst
N#C/C(C(N)=O)=c1/ccc2c(c1)N1C3=C(CCCC3)CC3CCCCC31N=2 (stereo not drawn) | 39.8µM* | ·

(next part)
SMILES | YjeE inh | PK Bst
O=C(Nc1ccc(F)cc1F)c1cccnc1 | i | >57
COc1ccc(CCNC(=O)CCCn2c(SCC#N)nc3ccccc3c2=O)cc1OC | i | >57
Cn1c(=O)c2c(ncn2CCSS(=O)(=O)O)n(C)c1=O | i | ·
Cc1ccc(C(=O)NC2CC(C)(C)NC(C)(C)C2)c(C)c1 | i | >57
Cc1cc(NC(=O)CN2CCN(c3ncccn3)CC2)no1 | i | >57
CCn1cc(C(=O)Nc2ccc(-n3cnnn3)c(OC)c2)c(=O)c2ccc(C)nc21 | i | >57
Cc1cc(/C=c2/sc3nc4ccccc4n3c2=O)c(C)n1-c1ccccn1 | · | 0.843*
O=C(CNC(=O)c1cc2ccccc2o1)NCc1cccs1 | i | >57
COc1ccc(C(=O)N2CCC(n3c(C)nc4cc(F)ccc43)CC2)cc1OC | i | >57
C=CCn1c(N)cc(=O)nc1SCC(=O)Nc1ccccc1 | i | >57

Four of the compounds above, with each value named:
Cc1cc(NC(=O)CN2CCN(c3ncccn3)CC2)no1
  YjeE inh = i	PK Bst = >57
Cc1cc(/C=c2/sc3nc4ccccc4n3c2=O)c(C)n1-c1ccccn1
  YjeE inh = ·	PK Bst = 0.843*
O=C(Nc1ccc(F)cc1F)c1cccnc1
  YjeE inh = i	PK Bst = >57
Cc1ccc(C(=O)NC2CC(C)(C)NC(C)(C)C2)c(C)c1
  YjeE inh = i	PK Bst = >57

(cont.)
SMILES | YjeE inh | PK Bst
CS(=O)(=O)N(CCc1ccccc1)CC(=O)N1CCN(Cc2ccc3c(c2)OCO3)CC1 | i | >57
O=C(NC1CCN(C(=O)N2c3ccccc3Sc3ccccc32)CC1)c1ccco1 | i | >11.4
Nc1nc(N)nc(CCCc2nc(N)nc(N)n2)n1 | i | ·
O=C(NCc1cccnc1)c1noc2c1CCCCC2 | i | >57
Cc1ccc(C(O)c2nc3ccccc3n2C(C)C)cc1 (stereo not drawn) | i | >57
CC1CCN(C(=O)c2ccc3c(c2)OCCO3)CC1 | i | >57
Cc1ccc(-c2cn(S(=O)(=O)c3cccc4nsnc34)nc2N)cc1 | i | ?
COc1ccc(CNc2cc(C)nc3ncnn23)c(OC)c1 | i | >57
CCOC(=O)N1CCN(c2nc(N(c3ccccc3)c3ccccc3)nc(-n3ccnc3)n2)CC1 | i | >57
Cn1c(=O)[nH]c(=O)c2c1nc(N1CCCCCC1)n2Cc1cccc2ccccc12 | i | >57
Cc1cc(-c2ccco2)n(CC(=O)O)n1 | i | >57
Cn1c(CN2CCOCC2)nc2cc(NC(=O)c3ccc(F)cc3)ccc21 | i | >57
O=C(CSc1n[nH]c(-c2ccncc2)n1)Nc1ccccn1 | i | >57
Cc1cc(NC(=O)CSc2nc3c(c(=O)n2-c2ccccc2)SC(C)C3)no1 (stereo not drawn) | i | ·
Cc1cc(/C=C(/C#N)c2cccc(F)c2)c(C)n1-c1cccnc1 | i | ·
CCn1nc(NC(=O)c2ccncc2)c2cc3cccc(C)c3nc21 | i | >57
COc1ccccc1CNC(=O)C(NC(=O)C1CCCCC1)C(C)C (stereo not drawn) | i | >57
O=C1NC(c2ccncc2)Nc2sc3c(c21)CCCC3 (stereo not drawn) | i | ·
COc1ncc2nc(-c3cc(F)cc(F)c3)c(=O)n(C[C@H]3CCCO3)c2n1 | i | ·
O=C(c1ccc(Cl)cc1)c1ccccc1C(=O)N1CCOCC1 | i | >57
COC(=O)c1ccc(C23CC2(C(NP(=O)(c2ccccc2)c2ccccc2)c2ccccc2)C3)cc1 (stereo not drawn) | i | ·
CCSc1nc(O)c(CC)c(=O)n1C(C)CC (stereo not drawn) | i | ·
CCOC(=O)Cc1cc(=O)n2[nH]c(C)cc2n1 | i | >57
CSc1nnc2c3c4c(sc3nc(-n3nc(C)cc3C)n12)COC(C)(C)C4 | i | >57
c1ccc2c(c1)Cn1nnnc1-2 | i | >57
COc1ccc(N2CCN(CCCNS(=O)(=O)c3c(C)noc3/C=C/N(C)C)CC2)cc1 | i | ·
COc1ccc(Cl)cc1NC(=O)C1CCCO1 (stereo not drawn) | i | ·
CCS(=O)(=O)c1nc2ccccc2n1CC(=O)N1CCOCC1 | i | >57
CCNC(=O)C1CC(=O)N(c2ccc(OCC)cc2)C1 (stereo not drawn) | i | >57
CCOc1ccc2[nH]cc(C(=O)N3CCN(CC)CC3)c(=O)c2c1 | i | >57
COc1ccccc1NC(=O)c1ccc(NS(C)(=O)=O)cc1 | i | >57
O=C(NC1(C(F)(F)F)NC(=O)N(Cc2cccnc2)C1=O)c1ccncc1 (stereo not drawn) | i | >57
O=C(Cn1c(CN2CCCCC2)nc2ccccc2c1=O)Nc1ccccc1 | i | >57
CNC(=O)Oc1ccc2c(c1)[C@]1(C)CCN(C)[C@@H]1N2C | · | >25.6
CC1=C(C(=O)Nc2ccc(Cl)cc2)C(c2ccco2)NC(=O)N1 (stereo not drawn) | i | >57
Cc1cccc(-c2nc(CN3CCCC(C(=O)NC4CCC(C)CC4)C3)c(C)o2)c1 (stereo not drawn) | i | >57
CCOC(=O)c1[nH]c(C)c(C(=O)NCc2ccc(Cl)cc2)c1C | i | >57
CCOC(=O)/C(N=O)=C(\O)C1CCN(C(=O)OCC)CC1 | i | >57
Cc1nc2ccccn2c1/C(O)=C1\C(=O)C(=O)N(CCN(C)C)C1c1cccnc1 (stereo not drawn) | i | >57
CCN1C(=O)c2cccc3c(NC(=O)c4ccc(S(=O)(=O)N(C)C)cc4)ccc1c23 | i | ·
COc1ccc(S(=O)(=O)N2CCN(C)CC2)cc1C | i | ·
CC(C(=O)NC(=O)NCc1ccccc1)N1C(=O)c2ccccc2C1=O (stereo not drawn) | · | >25.6
CCS(=O)(=O)C(=C1NCCO1)S(=O)(=O)CC | i | >57
O=C1CC(c2ccco2)Cc2nc(N3CCN(Cc4ccc5c(c4)OCO5)CC3)ncc21 (stereo not drawn) | i | >57
O=C(Cn1cnc2c(cnn2-c2ccc(F)cc2)c1=O)NCCc1ccccc1 | i | ·
O=C(Cn1ncc2c1-c1ccccc1OC2)Nc1ccc(S(=O)(=O)N2CCCCC2)cc1 | i | ·
CCC(C)n1c(-c2cccs2)nc2nc3ccccc3nc21 (stereo not drawn) | i | >57
O=C(Cc1ccc(F)cc1)N(c1ccccc1)C1C=CS(=O)(=O)C1 (stereo not drawn) | i | >57
COc1cc(C(=O)NCCc2ccc3c(c2)OCCO3)ccc1OCC(=O)N1CCOCC1 | i | >57
CN1CC(=O)N(C)c2ncn(Cc3ccccc3)c2C1=O | i | >57

Next section:
SMILES | YjeE inh | PK Bst
CCCN(CCC)Cc1c(C(=O)OCC)nnn1-c1nonc1N | i | >57
O=C(NCCc1ccc2c(c1)OCO2)C1CCN(S(=O)(=O)c2ccc(Cl)cc2)CC1 | i | >57
CCOc1ccc(-c2cn(CCC#N)cn2)cc1 | i | >57
C=CCOc1ccc(C2N3CC4(CC)CN2CC(CC)(C3)C4=O)cc1 (stereo not drawn) | i | >57
CSc1nnc2c(n1)OC(C1CC=C(C)CC1)Nc1ccccc1-2 (stereo not drawn) | i | ·
CC(CCc1ccccc1)NCc1ccncc1 (stereo not drawn) | i | >57
CCOC(=O)c1cc(C#N)c(NCc2ccccc2)nc1C | i | >57
COc1ccccc1-n1cnc(N)c1C(=O)c1ccccc1 | i | >57
COc1ccc(-c2cc(C(=O)NC(C)C)no2)cc1 | i | >57
COC(=O)C(NC(=O)c1ccccc1)=C1C=C(C)OC(C)=C1 | i | ·

Profiles, quoted from the list. Order of values: YjeE inh	PK Bst
`COc1ccccc1-n1cnc(N)c1C(=O)c1ccccc1` as listed: i	>57
`CSc1nnc2c(n1)OC(C1CC=C(C)CC1)Nc1ccccc1-2` (stereo not drawn) as listed: i	·
`CCOC(=O)c1cc(C#N)c(NCc2ccccc2)nc1C` as listed: i	>57
`O=C(NCCc1ccc2c(c1)OCO2)C1CCN(S(=O)(=O)c2ccc(Cl)cc2)CC1` as listed: i	>57

Additional entries follow:
SMILES | YjeE inh | PK Bst
NCC[C@H](O)C(=O)N[C@H]1C[C@@H](N)[C@@H](O[C@H]2O[C@@H](CN)[C@@H](O)[C@@H](O)[C@@H]2O)[C@@H](O)[C@@H]1O[C@H]1O[C@@H](CO)[C@@H](O)[C@@H](N)[C@@H]1O | i | ·
O=C(c1ccco1)N(CCCN1CCOCC1)c1nc(-c2ccc(F)cc2)cs1 | i | i
COc1ccc2cc3cc(C(=O)NCCCN4CCOCC4)oc3nc2c1 | i | i
NC(=O)c1nc(N2CCOCC2)nc(N2CCOCC2)n1 | i | >57
O=C(Nc1ccc2ccccc2c1)c1cnccn1 | i | ·
CCOc1ccc(Nc2nc(Cc3nnc(SCC(=O)O)o3)cs2)cc1 | i | ·
COc1ccccc1-n1c(SCC(=O)Nc2ccccc2C)nc(O)cc1=O | i | ·
CS(=O)(=O)c1ccc2nc(N)sc2c1 | i | >11.4
O=C1c2ccccc2C(=O)N1Cc1nc2ccccc2o1 | i | ·
Cn1nnnc1SCC(=O)N(C1CCCCC1)C1CCCCC1 | i | >57
Cc1ccc2c(C)nc(NC3=NCN(Cc4ccccc4)CN3)nc2c1 | i | >57
CC(C)(C)c1ccc(C(=O)N2CCC(C(=O)NCC3CCCO3)CC2)cc1 (stereo not drawn) | i | >57
CCSc1nc(O)c(C2OC(=O)c3c2ccc(OC)c3OC)c(=O)n1-c1ccccc1 (stereo not drawn) | · | >25.6
COc1cccc(Nc2ncc3nc(-c4cc(F)cc(F)c4)c(=O)n(CCC#N)c3n2)c1 | i | ·
C=CCn1c(C(C)NC(=O)CCC)nc2ccccc21 (stereo not drawn) | i | >57
Nc1nc(-c2ccccc2)cc(N2CCCCC2)n1 | i | ·

Screening data deposited in PubChem by National Center for Advancing Translational Sciences (NCATS).
